Screening results: PubChem BioAssay, several laboratories
Arbovirus anti = antivirals against arbovirus infection. inhibition, % at 10 µM. arbovirus infection cell-based antiviral screen. hit rate 0.37% among 200,000. AID 1251;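 active = inhibition from about 30%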;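 note: bluetongue infection of BSR cells; cell survival read as ATP light after 72 h; 0% = infected wells without compound and 100% = uninfected wells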
Mtb H37Rv = M. tuberculosis H37Rv growth inhibitors, H37Rv strain (AID 1626). M. tuberculosis H37Rv growth inhibition; higher % means a stronger effect. inhibition, % at 10 µM; hits with a dose series show IC50 in µM. hit rate 0.95% among 220,000;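 active = confirmed in a dose series; inconclusive = inhibition above 80% but not taken into the dose series; inactive = below 80% or under 30% at every dose of the series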;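 note: bacteria incubated seven days before Alamar blue readout; 0% = bacteria only wells and 100% = bacteria with antibiotic wells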
RecA splice inh = Mtb RecA intein splicing inhibition; inhibition, %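 (about 9 µM by stock and volumes)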; cell-free RecA intein splicing, fluorescence; hit rate 0.75% among 290,000; P9WHJ3; in the data active = inhibition above about 30%; inconclusive = no clear call, values can overlap the other calls;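 note: 0% = vehicle wells and 100% = reference inhibitor control wells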
Target sequence (P9WHJ3 whole entry, looked up, canonical isoform): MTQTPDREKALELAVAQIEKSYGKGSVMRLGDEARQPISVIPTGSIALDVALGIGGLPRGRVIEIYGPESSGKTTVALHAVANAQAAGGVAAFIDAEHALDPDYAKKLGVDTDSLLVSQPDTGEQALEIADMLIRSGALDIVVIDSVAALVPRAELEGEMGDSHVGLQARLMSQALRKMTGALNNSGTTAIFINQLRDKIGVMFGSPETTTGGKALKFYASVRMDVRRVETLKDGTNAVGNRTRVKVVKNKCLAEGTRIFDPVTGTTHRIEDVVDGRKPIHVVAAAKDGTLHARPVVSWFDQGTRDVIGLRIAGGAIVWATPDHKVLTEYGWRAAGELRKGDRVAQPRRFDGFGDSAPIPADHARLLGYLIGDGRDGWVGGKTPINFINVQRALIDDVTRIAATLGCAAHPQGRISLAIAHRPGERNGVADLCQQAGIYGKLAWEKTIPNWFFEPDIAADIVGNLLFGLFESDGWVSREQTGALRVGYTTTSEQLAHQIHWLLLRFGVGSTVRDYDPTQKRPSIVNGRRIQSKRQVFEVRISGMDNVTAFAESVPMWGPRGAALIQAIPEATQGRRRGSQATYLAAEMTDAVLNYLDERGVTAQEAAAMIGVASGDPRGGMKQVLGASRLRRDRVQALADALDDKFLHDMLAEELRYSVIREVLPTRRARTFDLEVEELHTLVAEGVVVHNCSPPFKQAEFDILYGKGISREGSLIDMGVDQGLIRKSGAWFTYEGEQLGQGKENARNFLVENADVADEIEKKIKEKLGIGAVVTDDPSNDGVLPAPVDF
Mtb bLac sens = beta-lactam sensitization of Mtb H37Rv; M. tuberculosis H37Rv growth with meropenem, percent inhibition; hits of this screen are not shown here; inhibition, % at 25 µM; hit rate 0.27% among 330,000; AID 434955;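 active = about 74% or more and at least 40 points above the plate without the antibiotic, then above 30% in a dose series; inconclusive = first-round hits that could not be retested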;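 note: growth measured after seven days incubation then overnight dye step; 0% = bacteria only wells and 100% = bacteria with antibiotic; twin plates without the antibiotic show which effects depend on it; some results filed as inactive read as strong as hits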
YopH inh = blocks Yersinia enterocolitica YopH tyrosine phosphatase; fluorescence Ex485/Em525; inhibition, %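 (about 10 µM by stock and volumes)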; hit rate 0.16% among 140,000; AID 898;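 active = inhibition of 50% or more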;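 note: controls were vehicle for no effect and minimum signal wells for full effect; inactives centre near -20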
Arbovirus anti repeat = also measured in Arbovirus anti; calls as there; inhibition, %; measured here: 10K subset replicate screen; many hits read low in the repeat;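 first of two repeat runs on a subset; 0% = infected and 100% = uninfected wells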
An asterisk follows results filed as active. Not all compounds are listed; rates above refer to the full screens.

`Nc1nc(OCC(F)(F)F)cc(Oc2ccccc2F)n1` gave Arbovirus anti 4, Mtb H37Rv 12%, RecA splice inh -1.4, Mtb bLac sens 4 and YopH inh -28.
`COc1ccc(OC)c(C2=NOC(C(=O)NCc3ccco3)C2)c1` (stereo not drawn) gave Arbovirus anti -23, Mtb H37Rv -10%, RecA splice inh 2.2, Mtb bLac sens -3 and YopH inh 2.
Cc1ccc(S(=O)(=O)N/N=C\c2cn(-c3ccccc3)nc2-c2ccccc2)cc1 was read as Arbovirus anti -13, Mtb H37Rv -5%, RecA splice inh 14, Mtb bLac sens 6 and YopH inh -14.
`CCOc1ccccc1CN1CCN(S(C)(=O)=O)CC1` gave Arbovirus anti -2, Mtb H37Rv -1%, RecA splice inh -2.5, Mtb bLac sens -3 and YopH inh -6.
`O=C(Nc1ncccn1)c1cc([N+](=O)[O-])cc([N+](=O)[O-])c1` gave Arbovirus anti 2, Mtb H37Rv -3%, RecA splice inh 0.5, Mtb bLac sens 7 and YopH inh -18.
`O=c1[nH]c(/C=C/c2ccc(Br)cc2)nc2c1cnn2-c1ccccc1` gave Arbovirus anti -3, Mtb H37Rv 3%, RecA splice inh -5.9 and Mtb bLac sens 1.
`Cc1sc2nc(CC(N)=O)[nH]c(=O)c2c1-c1ccccc1` gave Arbovirus anti 3, Mtb H37Rv -4%, RecA splice inh 5.1, Mtb bLac sens -1 and YopH inh -27.
Screening CN(C)S(=O)(=O)c1cccc(NC(=O)c2ccc(COc3ccccc3)cc2)c1 returned RecA splice inh 0.0 and Mtb bLac sens -3.
`Cc1cc(C(=O)N/N=C2\CC(=O)CC(C)(C)C2)n[nH]1` gave Arbovirus anti 0, Mtb H37Rv -6%, RecA splice inh 4.4, Mtb bLac sens -12 and YopH inh -18.
For O=C(CCN1CCC(c2ccccc2)C1)c1cccs1 (stereo not drawn) the results were Arbovirus anti -7, Mtb H37Rv inconclusive, RecA splice inh 0.9, Mtb bLac sens 98 and YopH inh 2.
`CCN(CC)C(c1ccc(C)cc1)c1nnnn1C1CCCCC1` (stereo not drawn) gave Arbovirus anti 12, Mtb H37Rv -1%, RecA splice inh 2.1, Mtb bLac sens 3 and YopH inh -16.
C[C@H](NC(=O)c1ccccc1)C(=O)N1CCC2(CC1)NCCc1[nH]cnc12 was read as RecA splice inh -5.5 and Mtb bLac sens 6.
Screening CCOC(=O)CNc1nc(Oc2ccc(=O)n(C)n2)nc(N(CC)CC)n1 returned Arbovirus anti -4, Mtb H37Rv -7%, RecA splice inh 0.1 and Mtb bLac sens -1.
Screening CCOc1cc(C(=O)Nc2ccc(S(=O)(=O)N3CCOCC3)cc2)cc(OCC)c1OCC returned Arbovirus anti 0, Mtb H37Rv -2%, RecA splice inh 3.3, Mtb bLac sens 5 and YopH inh -41.
`Cc1ccc(Cl)cc1N(C)C(=O)Cn1ncc2c([nH]c3ccccc32)c1=O` gave RecA splice inh -3.9 and Mtb bLac sens -3.
For CCC(CC)NC(=O)c1oc2ccccc2c1COc1ccccc1 the results were Arbovirus anti -1, Mtb H37Rv 0%, RecA splice inh 16, Mtb bLac sens -4 and YopH inh -27.
O=C(Nc1cccc([N+](=O)[O-])c1)N1CCCc2ccccc21 was read as RecA splice inh 3.2 and Mtb bLac sens 14.
For O=C(NCC1CCCN1S(=O)(=O)c1cccs1)C(=O)Nc1ccccc1Cl (stereo not drawn) the results were RecA splice inh 0.4 and Mtb bLac sens -5.
For O=C(CSc1cn(CC(=O)N2CCCCCC2)c2ccccc12)NCC1CCCO1 (stereo not drawn) the results were Arbovirus anti 3, Mtb H37Rv -2%, RecA splice inh 2.5 and Mtb bLac sens -13.
`CCC(C)NC(=O)Cn1cc(S(=O)(=O)N2CCCC2)c(S(=O)(=O)N2CCCC2)c1` (stereo not drawn) gave RecA splice inh -0.6 and Mtb bLac sens -2.
O=C(CSc1nnc(CNC(=O)c2ccccc2F)o1)Nc1ccc2c(c1)OCO2 was read as Arbovirus anti 2, Mtb H37Rv 6%, RecA splice inh -2.9 and Mtb bLac sens 9.
Cc1onc(-c2c(F)cccc2Cl)c1C(=O)N1CCOC12CCCCC2 was read as Arbovirus anti -2, Mtb H37Rv 0%, RecA splice inh -3.1 and Mtb bLac sens 7.
Screening O=[N+]([O-])c1cc(C(F)(F)F)cc([N+](=O)[O-])c1NCCCN1CCOCC1 returned Arbovirus anti 7, Mtb H37Rv 4%, RecA splice inh 3.2 and Mtb bLac sens -2.
NC(=O)c1cccc(-c2cccc(OC(=O)NC3CCCCC3)c2)c1 was read as RecA splice inh 1.6 and Mtb bLac sens 3.

Quoted at random: three records from the list
For CCC(CC)NC(=O)c1oc2ccccc2c1COc1ccccc1 the results were Arbovirus anti -1, Mtb H37Rv 0%, RecA splice inh 16, Mtb bLac sens -4 and YopH inh -27.
Screening CCOC(=O)CNc1nc(Oc2ccc(=O)n(C)n2)nc(N(CC)CC)n1 returned Arbovirus anti -4, Mtb H37Rv -7%, RecA splice inh 0.1 and Mtb bLac sens -1.
NC(=O)c1cccc(-c2cccc(OC(=O)NC3CCCCC3)c2)c1 was read as RecA splice inh 1.6 and Mtb bLac sens 3.

Other compounds follow.
CCOC(=O)c1oc2cc(O)ccc2c(=O)c1-c1csc(C)n1 was read as Arbovirus anti -10, Mtb H37Rv -7%, RecA splice inh 1.6, Mtb bLac sens -8 and YopH inh -41.
Screening COc1ccc2c(c1OC)C(=O)N1N=C(c3ccc(F)cc3)CC21 (stereo not drawn) returned Arbovirus anti -6, Mtb H37Rv 7%, RecA splice inh -0.8 and Mtb bLac sens -1.
CCOC(=O)c1c(NC(=O)C(C)Sc2cccc[n+]2[O-])sc2c1CCN(Cc1ccccc1)C2 (stereo not drawn) was read as Arbovirus anti -1, Mtb H37Rv 13%, Mtb bLac sens -1 and YopH inh -20.
Screening Cn1ncc(Br)c1C(=O)N/N=C/c1cccc(OC2CSC2)c1 returned Arbovirus anti -1, Mtb H37Rv -2%, RecA splice inh -2.8, Mtb bLac sens -3 and YopH inh -22.
`COc1ccc(N2C(=O)CC(NCc3ccncc3)C2=O)cc1` (stereo not drawn) gave Arbovirus anti 8, Mtb H37Rv -3%, RecA splice inh -1.3, Mtb bLac sens -5 and YopH inh -4.
O=C(O)C1CCCN(S(=O)(=O)c2ccc(F)cc2)C1 (stereo not drawn) was read as Arbovirus anti 4, Mtb H37Rv -12%, RecA splice inh -1.1, Mtb bLac sens -11 and YopH inh -18.
`CCS(=O)(=O)c1ccc(S(=O)(=O)CC)s1` gave Arbovirus anti -5, Mtb H37Rv -1%, RecA splice inh -13, Mtb bLac sens 7 and YopH inh 5.
For COc1cccc(-c2nn3c(-c4ccco4)nnc3s2)c1 the results were Mtb H37Rv -7%, RecA splice inh -1.5 and Mtb bLac sens 0.
`COC(=O)CN(c1ccc2c(c1)OCO2)S(=O)(=O)c1c(C)[nH]c(=O)[nH]c1=O` gave RecA splice inh -1.0 and Mtb bLac sens -2.
For COc1ccc(C)cc1NC(=O)CN1C(=O)COc2ccc(S(=O)(=O)N3CCC(C)CC3)cc21 the results were RecA splice inh -0.6 and Mtb bLac sens -4.
`Cc1cccc(OCc2nnc(SCC(=O)c3ccccc3)o2)c1` gave Arbovirus anti -6, Mtb H37Rv -2%, RecA splice inh 0.7, Mtb bLac sens 0 and YopH inh -23.
For CN1CCN(S(=O)(=O)c2ccc(N)cc2)CC1 the results were Arbovirus anti 8, Mtb H37Rv -6%, RecA splice inh -1.7, Mtb bLac sens -1 and YopH inh -24.
Screening CC(=O)N1CCCc2cc(S(=O)(=O)N3CCCC(C(=O)Nc4ccccc4C)C3)ccc21 (stereo not drawn) returned RecA splice inh 1.4 and Mtb bLac sens 4.
Screening Cc1ccc(C2C(=O)N(C3CCCC3)CC(=O)N2CC2COc3ccccc3O2)cc1 (stereo not drawn) returned Arbovirus anti 1, Mtb H37Rv -5%, Mtb bLac sens -1 and YopH inh 1.
Screening CCN(CC)c1nc(C(F)(F)F)nc2c1nnn2Cc1ccccc1 returned RecA splice inh 14 and Mtb bLac sens 9.
Screening COc1cc(CCCN2CCNC[C@@H]2Cc2ccc(O)cc2)cc(OC)c1OC returned RecA splice inh -0.7 and Mtb bLac sens -6.
For COc1ccccc1C(=O)NCCCNC(=O)c1cnccn1 the results were RecA splice inh 0.9 and Mtb bLac sens -6.
For C=CCn1c(SCCN2CCOCC2)nc2c1c(=O)[nH]c(=O)n2C the results were Arbovirus anti 6, Mtb H37Rv -1%, RecA splice inh 1.2, Mtb bLac sens -2 and YopH inh -49.
For O=C(Nc1ccccc1F)N(Cc1ccc(F)cc1)Cc1nc2ccccc2c(=O)[nH]1 the results were Arbovirus anti 1, Mtb H37Rv -4%, RecA splice inh 2.5 and Mtb bLac sens -1.
CC(C)C(=O)Nc1ccc(-c2nc3ncccc3o2)cc1 was read as RecA splice inh 1.0 and Mtb bLac sens -3.
CS(=O)(=O)Nc1ccc(C(=O)NC2CC3CCC2C3)cc1 (stereo not drawn) was read as Arbovirus anti -3, Mtb H37Rv -2%, RecA splice inh -7.9, Mtb bLac sens -7 and YopH inh -6.
`CCCC/S(C)=N/S(=O)(=O)c1ccc(C)cc1` (stereo not drawn) gave Arbovirus anti -4, Mtb H37Rv -5%, RecA splice inh 0.6, Mtb bLac sens -9 and YopH inh -14.
Screening O=S(=O)(NC1CC1)c1ccc(S(=O)(=O)N2CCCc3ccccc32)cc1 returned Arbovirus anti 6, Mtb H37Rv -8%, RecA splice inh 2.6, Mtb bLac sens 8 and YopH inh -21.
Cc1c(CN(C)C)c2c(n1Cc1ccccc1)C(=O)c1ccccc1-2 was read as Arbovirus anti -38, Mtb H37Rv -1%, RecA splice inh 2.9, Mtb bLac sens -7 and YopH inh -3.

Among those listed so far, three contain a furan ring, fused or not.
`COc1ccc(OC)c(C2=NOC(C(=O)NCc3ccco3)C2)c1` (stereo not drawn) gave Arbovirus anti -23, Mtb H37Rv -10%, RecA splice inh 2.2, Mtb bLac sens -3 and YopH inh 2.
For CCC(CC)NC(=O)c1oc2ccccc2c1COc1ccccc1 the results were Arbovirus anti -1, Mtb H37Rv 0%, RecA splice inh 16, Mtb bLac sens -4 and YopH inh -27.
For COc1cccc(-c2nn3c(-c4ccco4)nnc3s2)c1 the results were Mtb H37Rv -7%, RecA splice inh -1.5 and Mtb bLac sens 0.

(more compounds)
Cc1ccccc1CN(c1ccc(C(=O)Nc2cccnc2)cc1)S(C)(=O)=O was read as Arbovirus anti 4, Mtb H37Rv -5%, RecA splice inh 4.1, Mtb bLac sens -3 and YopH inh -15.
`CC(Sc1nnc2ccccn12)C(=O)Nc1ccc2c(c1)OCCO2` (stereo not drawn) gave Arbovirus anti 3, Mtb H37Rv 0%, RecA splice inh 1.7 and Mtb bLac sens -4.
For Cc1cccc(-n2ncc(C#N)c2N)c1 the results were Arbovirus anti 6, Mtb H37Rv -8%, RecA splice inh -0.8, Mtb bLac sens 7 and YopH inh 24.
For O=C(Nc1cccc(S(=O)(=O)NCc2ccco2)c1)c1cc(-c2ccc(F)cc2)nc2ccccc12 the results were Arbovirus anti -20, Mtb H37Rv 47%, RecA splice inh 4.1 and YopH inh -21.
`COCCN1CCC(CNCc2cn(-c3cc(C)ccc3C)nc2-c2ccccc2)C1` (stereo not drawn) gave Arbovirus anti -33, Mtb H37Rv 3%, RecA splice inh 4.4 and Mtb bLac sens 2.
For COc1ccc(Nc2nc(N)nc(CSC(=S)N3CCN(c4ccccc4)CC3)n2)cc1 the results were Arbovirus anti 10, Mtb H37Rv 38%, RecA splice inh 8.0, Mtb bLac sens 21 and YopH inh 21.
Screening COc1cccc(NC(=O)c2ccc(S(=O)(=O)N3CCCCC3)cc2)c1 returned Arbovirus anti 6, Mtb H37Rv -1%, RecA splice inh 3.1, Mtb bLac sens -2, YopH inh -21 and Arbovirus anti repeat -12.
Screening CCCCn1c(O)c(/C=N/NC(=O)c2ccncc2)c(=O)[nH]c1=O returned Mtb H37Rv inconclusive, RecA splice inh -2.4 and Mtb bLac sens 100.
For Cc1cccc(Nc2nnc(SCC(=O)NC3CCCc4ccccc43)s2)c1C (stereo not drawn) the results were Arbovirus anti 3, Mtb H37Rv -8%, RecA splice inh 1.3, Mtb bLac sens 11 and YopH inh -12.
Screening CC(=O)NC1C(=O)N(CC(C)C)c2ccccc21 (stereo not drawn) returned Arbovirus anti -2, Mtb H37Rv -9%, RecA splice inh 1.6, Mtb bLac sens -5 and YopH inh 1.
Screening COc1ccc(C(=O)C2CCCN(Cc3ccsc3)C2)cc1OC (stereo not drawn) returned Arbovirus anti -14, Mtb H37Rv 0%, RecA splice inh 1.5 and Mtb bLac sens -4.
For O=C(COc1ccc(Br)cc1)NCCN1CCCC1 the results were RecA splice inh 2.6 and Mtb bLac sens 1.
